NPYLR7 agonist – agonists of mosquito NPYLR7 receptor, primary screen, cell-based, Aedes aegypti, calcium fluorescence, mosquito biting behavior. Aedes aegypti neuropeptide Y-like receptor 7 (NPYLR7). HEK293T NPYLR7/Galpha15, GCaMP6s calcium fluorescence. activation, % at 10 µM. 270,000 compounds, 0.15% hits; in the data active = activation above about 40%;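 also: 0% = vehicle and 100% = reference agonist at the receptor; some compounds past the cut are filed as inactive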
NPYLR7 agonist max-min – further read-out of NPYLR7 agonist, marked with its call; activation, %; measured here: Max-Min RFU normalised activation; some inactives read as strong as hits;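 span of the calcium signal over five minutes; 0% = vehicle and 100% = native peptide agonist; compound fluorescence can raise it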
* marks the source's active call; other numbers are inactive results; & = joins results of further samples.

`CC(C)(C)c1ccc(-c2ccnc3nc(N4CCN(S(=O)(=O)c5cccc([N+](=O)[O-])c5)CC4)nn23)cc1` gave NPYLR7 agonist 25.0 and NPYLR7 agonist max-min 16.7.
`COc1ccc(CN2CCn3nc(C(=O)NCc4cccnc4)cc3C2=O)cc1` gave NPYLR7 agonist 1.8 and NPYLR7 agonist max-min 17.1.
CN(C)c1ccc(C2=NOC(CN(Cc3cccc(C(F)(F)F)c3)C(=O)C3CC3)C2)cc1 (stereo not given) was read as NPYLR7 agonist 7.8 and NPYLR7 agonist max-min 15.6.
O=C1NC(=O)C2CCCCC12 (stereo not given) was read as NPYLR7 agonist -7.2 and NPYLR7 agonist max-min -11.1.
Screening COc1ccccc1CCNc1nncc(-c2ccccc2)n1 returned NPYLR7 agonist -0.2 and NPYLR7 agonist max-min -0.6.
Screening COc1cccc(OC)c1OCc1nc(-c2ccccn2)no1 returned NPYLR7 agonist 0.9 and NPYLR7 agonist max-min 3.4.
Screening CC(C)(C)C(=O)N1CCN(c2ncnc3c2nnn3-c2ccc(Cl)cc2)CC1 returned NPYLR7 agonist -12.8 and NPYLR7 agonist max-min -19.1.
For CCOCCCNC(=O)c1cc(NC(=O)Nc2cccc(OC)c2)ccc1N1CCC(Cc2ccccc2)CC1 the results were NPYLR7 agonist 0.3 and NPYLR7 agonist max-min 1.8.
`Cc1ccc2c(c1)c1c3n2CCN(C(=O)c2ccc([N+](=O)[O-])cc2)C3CCC1` (stereo not given) gave NPYLR7 agonist 2.8 and NPYLR7 agonist max-min -0.1.
CC(Nc1ccc(-c2nccn2C)nn1)c1ccccc1 (stereo not given) was read as NPYLR7 agonist 7.2 and NPYLR7 agonist max-min 4.3.
O=C(NC1CCN(c2ccccc2C(=O)NCc2cccc(C(F)(F)F)c2)CC1)c1ccc(Br)cc1 was read as NPYLR7 agonist 4.2 and NPYLR7 agonist max-min 15.7.
For CCN1CCc2nc3ccccc3c(C(=O)NCc3ccc(OC)cc3)c2C1 the results were NPYLR7 agonist 1.7 and NPYLR7 agonist max-min 5.7.

4 entries picked at random from the list so far:
`CC(C)(C)c1ccc(-c2ccnc3nc(N4CCN(S(=O)(=O)c5cccc([N+](=O)[O-])c5)CC4)nn23)cc1` gave NPYLR7 agonist 25.0 and NPYLR7 agonist max-min 16.7.
CN(C)c1ccc(C2=NOC(CN(Cc3cccc(C(F)(F)F)c3)C(=O)C3CC3)C2)cc1 (stereo not given) was read as NPYLR7 agonist 7.8 and NPYLR7 agonist max-min 15.6.
`Cc1ccc2c(c1)c1c3n2CCN(C(=O)c2ccc([N+](=O)[O-])cc2)C3CCC1` (stereo not given) gave NPYLR7 agonist 2.8 and NPYLR7 agonist max-min -0.1.
For CCN1CCc2nc3ccccc3c(C(=O)NCc3ccc(OC)cc3)c2C1 the results were NPYLR7 agonist 1.7 and NPYLR7 agonist max-min 5.7.

Remaining list, next part
Screening CN(Cc1ccc(F)cc1)Cn1nc(-c2ccncc2)n(C2CC2)c1=S returned NPYLR7 agonist 11.8 and NPYLR7 agonist max-min 8.9.
Screening Cc1nnsc1CN(C)Cc1cc(F)ccc1-n1cccn1 returned NPYLR7 agonist 17.0 and NPYLR7 agonist max-min 10.7.
C=CCOc1ccc(Cl)cc1CN1CCOC(CN)C1 (stereo not given) was read as NPYLR7 agonist 6.6 and NPYLR7 agonist max-min 4.4.
`COCCN(CC(=O)N1CCc2sccc2C1COc1ccc(Cl)cc1)C(=O)Nc1ccc(C)cc1` (stereo not given) gave NPYLR7 agonist 9.6 and NPYLR7 agonist max-min 7.2.
For O=C(N=C1N=C2C=CC=CN2Cc2ccccc21)c1cn(-c2ccccc2)nc1-c1ccc(F)cc1 the results were NPYLR7 agonist -1.9 and NPYLR7 agonist max-min -6.9.
Screening Cc1cnc(N(C)CC(O)CO)nc1N(C)C (stereo not given) returned NPYLR7 agonist 3.9 and NPYLR7 agonist max-min 3.3.
`Cc1cc(C)cc(OCC(=O)NC(C)c2ccc(-n3cncn3)cc2)c1` (stereo not given) gave NPYLR7 agonist 3.2 and NPYLR7 agonist max-min 10.8.
`Cc1cc(C)cc(CC(=O)N2CCC2(C)C(=O)NCc2cccnc2)c1` (stereo not given) gave NPYLR7 agonist 10.2 and NPYLR7 agonist max-min 8.6.
For C=CCN1C(=O)C(O)(c2cnc(N)s2)c2ccccc21 (stereo not given) the results were NPYLR7 agonist -4.9 and NPYLR7 agonist max-min -9.2.
Screening COc1ccc(OC)c(CN(Cc2nc(C(=O)N3CCOCC3)co2)C(C)c2ccccc2)c1 (stereo not given) returned NPYLR7 agonist 3.0 and NPYLR7 agonist max-min 11.9.
For CC1Cc2cc(-c3csc(N(C)C)n3)ccc2N1S(C)(=O)=O (stereo not given) the results were NPYLR7 agonist 0.2 and NPYLR7 agonist max-min -0.1.
For COCCOCCC(=O)Nc1ccc(-c2noc(C(C)(C)C)n2)cc1 the results were NPYLR7 agonist 15.8 and NPYLR7 agonist max-min 11.2.
For Fc1ccc(NN=Cc2ccccn2)c(F)c1 the results were NPYLR7 agonist 2.3 and NPYLR7 agonist max-min 1.4.
Screening O=C(CN(C1CC1)S(=O)(=O)c1ccc(Cl)cc1)N1CC(=O)N(c2ccc(Cl)cc2)C1 returned NPYLR7 agonist 8.6 and NPYLR7 agonist max-min 13.7.
`COc1ccc(CCN(C)c2cc(C(C)(C)C)nc(SCc3cccc(C(=O)NCc4cccnc4)c3)n2)cc1OC` gave NPYLR7 agonist 3.5 and NPYLR7 agonist max-min 2.7.
Screening Cn1c(-c2cccc(F)c2)cc2cnc(Nc3cccnc3)cc21 returned NPYLR7 agonist 1.0 and NPYLR7 agonist max-min 13.6.
Screening Cc1ccc2c(c1)C1(SCCN1C(=O)C1CCCC1)C(=O)N2Cc1cccc(C#N)c1 (stereo not given) returned NPYLR7 agonist 17.3 and NPYLR7 agonist max-min 17.8.
For CNC(=O)C(C)CN(C)C(=O)Nc1ccc(NC(=O)c2ccco2)cc1 (stereo not given) the results were NPYLR7 agonist -4.2 and NPYLR7 agonist max-min 25.2.
`O=S(=O)(NCC1COCCO1)c1cc(C(F)(F)F)cc(C(F)(F)F)c1` (stereo not given) gave NPYLR7 agonist 2.7 and NPYLR7 agonist max-min -0.6.
For Cc1ccccc1-n1ncc2c1CC(C)(C)CC2NC(=O)CCc1n[nH]c2c1CCCC2 (stereo not given) the results were NPYLR7 agonist 1.8 and NPYLR7 agonist max-min 0.9.
CC(C)CCn1c(CN(C)C2CCOC2)cnc1S(=O)(=O)C(C)C (stereo not given) was read as NPYLR7 agonist 0.3 and NPYLR7 agonist max-min -4.0.
CC(C)c1cccc(C(C)C)c1NC(=O)CN1CCN(Cc2cccs2)CC1 was read as NPYLR7 agonist -0.9 and NPYLR7 agonist max-min -3.6.
`CCOc1ccc(-c2cc(C(=O)NC(C)c3ccc(Br)cc3)c3ccccc3n2)cc1` (stereo not given) gave NPYLR7 agonist 1.3 and NPYLR7 agonist max-min 11.4.
For COc1ccc(C(NC(=O)C2CCN(Cc3ccc(N(C)C)cc3)CC2)c2ccccn2)cc1 (stereo not given) the results were NPYLR7 agonist -6.6 and NPYLR7 agonist max-min -0.7.

In the list so far, these contain a CF3 group.
CN(C)c1ccc(C2=NOC(CN(Cc3cccc(C(F)(F)F)c3)C(=O)C3CC3)C2)cc1 (stereo not given) was read as NPYLR7 agonist 7.8 and NPYLR7 agonist max-min 15.6.
O=C(NC1CCN(c2ccccc2C(=O)NCc2cccc(C(F)(F)F)c2)CC1)c1ccc(Br)cc1 was read as NPYLR7 agonist 4.2 and NPYLR7 agonist max-min 15.7.
`O=S(=O)(NCC1COCCO1)c1cc(C(F)(F)F)cc(C(F)(F)F)c1` (stereo not given) gave NPYLR7 agonist 2.7 and NPYLR7 agonist max-min -0.6.

Next structures
For COc1ccc(NC(=O)CCCn2nc(-c3ccco3)ccc2=O)cc1OC the results were NPYLR7 agonist -0.9 and NPYLR7 agonist max-min 0.4.
Screening Cc1ccc(-n2c(=O)[nH]c3c(C(=O)NCCCc4ccccc4)cn(C)c3c2=O)cc1 returned NPYLR7 agonist 8.4 and NPYLR7 agonist max-min 10.3.
`COc1ccc(C[C@H](NC(=O)C2=C[C@@H](NC(=O)c3ccc(C)cc3)[C@@H](O)[C@H](O)C2)C(N)=O)cc1` gave NPYLR7 agonist -10.6 and NPYLR7 agonist max-min -20.6.
C=C(C)COc1ccccc1C(=O)NC1C=CS(=O)(=O)C1 (stereo not given) was read as NPYLR7 agonist -1.8 and NPYLR7 agonist max-min -11.0.
O=C(N[C@H]1CC[C@@H]2SC[C@@H](C(=O)N[C@@H]3C[C@H]4CC[C@@H]3C4)N2C1=O)c1ccco1 was read as NPYLR7 agonist 2.1 and NPYLR7 agonist max-min 0.1.
Screening CNS(=O)(=O)CCNc1nccc(C2CCCC2)n1 returned NPYLR7 agonist 5.2 and NPYLR7 agonist max-min 1.2.
For CC(=O)SCC(Cc1ccccc1)C(=O)NCC(=O)OCc1ccccc1 (stereo not given) the results were NPYLR7 agonist -16.6&-5.0 and NPYLR7 agonist max-min -22.5&-9.5.
`O=C(CSc1nnc(Cc2cccs2)n1C1CC1)N1CCOC1=O` gave NPYLR7 agonist 4.1 and NPYLR7 agonist max-min -1.2.
COCCN1CC(C(=O)N2CCN(c3cc(C)nc(C)c3)CC2)CCC1=O (stereo not given) was read as NPYLR7 agonist 6.3 and NPYLR7 agonist max-min 2.3.
CCCc1nc(C)cc(N(C)Cc2ccnc(C)c2)n1 was read as NPYLR7 agonist -3.2 and NPYLR7 agonist max-min -6.0.
Cc1cc(CNC(=O)N(C)Cc2ccc(F)c(F)c2)no1 was read as NPYLR7 agonist 5.5 and NPYLR7 agonist max-min 5.3.
For COc1cccc(CN2CCC(C(=O)Nc3cccc(-c4cccc(F)c4)c3)CC2)c1O the results were NPYLR7 agonist 9.8 and NPYLR7 agonist max-min 5.8.
Screening CCOC(=O)c1c(C2CC2)csc1NC(=O)COC(=O)C1CCC1 returned NPYLR7 agonist -1.0 and NPYLR7 agonist max-min 6.3.
For COc1ccccc1C(=O)N(CC(=O)N1CCc2sccc2C1c1ccc(C)cc1)C1CC1 (stereo not given) the results were NPYLR7 agonist 6.3 and NPYLR7 agonist max-min 15.7.
For O=C(CSCc1ccccc1Cl)N1CC[C@@H](O)C1 the results were NPYLR7 agonist -1.1 and NPYLR7 agonist max-min 2.9.
Screening Cc1ccc(C2=Nc3nc(C(F)(F)F)nn3C(c3ccc(Cl)cc3)C2)cc1 (stereo not given) returned NPYLR7 agonist 0.4 and NPYLR7 agonist max-min -5.4.
CCN(CC(C)(C)O)C(=O)c1cc(SC)ccc1C was read as NPYLR7 agonist -11.4 and NPYLR7 agonist max-min -11.8.
For Cc1ccc(NC(=O)CCc2c(C)nc(SCC(N)=O)nc2C)c(C)c1 the results were NPYLR7 agonist -1.8 and NPYLR7 agonist max-min -1.4.
O=C(c1ccc(CSc2nnc(-c3ccncc3)n2Cc2ccccc2)cc1)N1CCN(c2ccccc2F)CC1 was read as NPYLR7 agonist 28.5 and NPYLR7 agonist max-min 35.5.
CCN(Cc1ccncc1)Cc1nc(COc2ccccc2)no1 was read as NPYLR7 agonist -0.8 and NPYLR7 agonist max-min -4.6.
COc1ccc(C(c2ccccn2)N(C)C(=O)C2CCN(S(=O)(=O)c3ccc(C)cc3)CC2)cc1 (stereo not given) was read as NPYLR7 agonist 2.4 and NPYLR7 agonist max-min -2.4.
`Nc1nc(CSc2nnc(N)s2)nc(N2CCOCC2)n1` gave NPYLR7 agonist 3.2 and NPYLR7 agonist max-min 2.0.
For O=C(c1ccc(F)cc1F)N1CCC(n2c(=O)oc3ccc(F)cc32)CC1 the results were NPYLR7 agonist 27.2 and NPYLR7 agonist max-min 27.3.
Screening Cc1ccc(C2NC(=O)c3c(sc4c3CCN(C)C4)N2)o1 (stereo not given) returned NPYLR7 agonist 19.5 and NPYLR7 agonist max-min 7.0.
Screening COc1ccccc1NC(=O)Nc1ccnn1C1CCN(CC2CC=CCC2)CC1 (stereo not given) returned NPYLR7 agonist 6.8 and NPYLR7 agonist max-min 2.3.
For Nc1c(C(=O)NCc2cccs2)c2nc3ccccc3nc2n1/N=C\c1ccccc1 the results were NPYLR7 agonist 9.7 and NPYLR7 agonist max-min 0.9.
Cc1ccc(N2C(=O)CSC2c2cccs2)cc1Cl (stereo not given) was read as NPYLR7 agonist -4.6 and NPYLR7 agonist max-min -7.9.
For C=CCn1c(SCc2ccc(C(=O)NCc3ccc4c(c3)OCO4)cc2)nnc1-c1ccco1 the results were NPYLR7 agonist 3.4 and NPYLR7 agonist max-min 10.2.
`O=C(c1ccccc1[N+](=O)[O-])N(C(=O)N1CCCCC1)c1ccccc1` gave NPYLR7 agonist 7.9 and NPYLR7 agonist max-min 7.4.
Cc1ccccc1COc1cn(CC(=O)NCc2ccc(F)cc2)c(CO)cc1=O was read as NPYLR7 agonist 5.2 and NPYLR7 agonist max-min 4.5.
Screening CCOC(=O)c1cc(-c2cccc(NC(=O)c3ccc(C(=O)OC)cc3)c2)n(-c2cccc(C)c2)n1 returned NPYLR7 agonist 13.5 and NPYLR7 agonist max-min 1.3.
COc1ccc2oc(CNC(=O)c3cc(CC(C)C)[nH]n3)nc2c1 was read as NPYLR7 agonist 12.1 and NPYLR7 agonist max-min 0.6.
For COc1ccc2[nH]c3c(c2c1)CCN(C(=O)c1cccnc1Oc1ccc(Cl)cc1)C3c1ccccc1OC (stereo not given) the results were NPYLR7 agonist 17.3 and NPYLR7 agonist max-min 3.2.
For Cc1ccc(Cl)c(Oc2cc(N3CCCC3)ncn2)c1 the results were NPYLR7 agonist -16.0 and NPYLR7 agonist max-min -5.7.
CNc1nc(N2CCCCC2)nc(N)c1[N+](=O)[O-] was read as NPYLR7 agonist -0.8 and NPYLR7 agonist max-min -3.8.
`CN1CCN(c2ncccc2CNC(=O)c2cn3cc(Cl)cnc3n2)CC1` gave NPYLR7 agonist -0.5 and NPYLR7 agonist max-min 44.4.
Cn1c(CCCNC(=O)CCn2ccccc2=O)nc2ccccc21 was read as NPYLR7 agonist -0.8 and NPYLR7 agonist max-min -5.3.
Cc1ccc(N2C(=O)CSC2c2cccc(C(F)(F)F)c2)cc1F (stereo not given) was read as NPYLR7 agonist -7.3 and NPYLR7 agonist max-min -8.4.

Source: PubChem BioAssay

A portion of the library (hit frequency here may not be typical).
